Compound activity as filed in PubChem.
NPYLR7 agonist – agonists of mosquito NPYLR7 receptor, primary screen, cell-based, Aedes aegypti, calcium fluorescence, mosquito biting behavior; HEK293T NPYLR7/Galpha15, GCaMP6s calcium fluorescence; activation, % at 10 µM; 270,000 tested, 0.15% active; AID 1259423, 2018; in the data active = activation above about 40%;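 also: 0% = vehicle and 100% = reference agonist at the receptor; some compounds past the cut are filed as inactive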
NPYLR7 agonist max-min – further read-out of NPYLR7 agonist, marked with its call; activation, %; measured here: Max-Min RFU normalised activation; some inactives read as strong as hits;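 span of the calcium signal over five minutes; 0% = vehicle and 100% = native peptide agonist; compound fluorescence can raise it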
Numbers without * were called inactive; & = joins results of further samples. Not all compounds are listed, so the mix of outcomes need not match the whole.

Second line of a record: NPYLR7 agonist	NPYLR7 agonist max-min
- COc1ccc2c(c1)OC(C)CN(CCC(=O)NCCCc1ccncc1)C2 (centres undefined)
  32	19
- O=[N+]([O-])c1ccc(Sc2nnnn2-c2ccccc2)c([N+](=O)[O-])c1
  3	1
- Cc1cc(NC(=O)Cn2c(=CC(=O)C(C)(C)C)sc(=Cc3ccc(C)s3)c2=O)no1
  14	25
- COCCN(Cc1ccc(OC)c(OCc2nc(CO)cs2)c1)C(=O)c1cccc(F)c1
  6	11
- Cn1c(=O)n(Cc2ccccc2)c(=O)c2c1nc1n2CCCN1Cc1ccccc1
  3	1
- CC(C)NC(=O)C1=COC2=NC(=O)NCCN12
  -2	-4
- CN(C)c1cccc(NC(=O)c2cc(NCc3cnn(C)c3)cc(S(=O)(=O)N3CCCC3)c2)c1
  17	1
- Cc1ccc(OCC(=O)NNC(=O)c2cccc(C)c2)cc1
  -4	-9
- CC(C)OCCn1ccnc1-c1ccc(Cl)s1
  18	6
- COc1nc(-c2ccc(C)cc2)n(-c2cccc(NC(=O)c3ccc(C(F)(F)F)cc3)c2)n1
  2	10
- Cc1c(-c2ccccc2)oc2c(C(=O)N3CCOC(C)C3)cccc2c1=O (centres undefined)
  1	1
- COC(=O)C1=CN(C)C=C(C(=O)OC)C1c1ccc(Cl)s1
  12	5
- O=C(Nc1nc(-c2ccco2)cs1)c1c[nH]c(C(=O)N2CCCC2)c1
  -4	-9
- COc1cccc(C2CCCN2c2nccc(-c3cn(C)nc3C)n2)c1 (centres undefined)
  20	14
- CCOC(=O)c1ccc2c(c1)nc(SCc1cc(Cl)ccc1F)n2Cc1ccco1
  3	0
- Cc1nc(CC(=O)NC2CCc3[nH]c4c(C)cc(Cl)cc4c3C2)c(C)s1 (centres undefined)
  0	11
- O=[N+]([O-])c1cc(-c2nnc(C34CC5CC(CC(C5)C3)C4)o2)cc([N+](=O)[O-])c1
  0	-5
- COC(=O)c1ccc(/C=C2\SC(=S)N(C(C)C(=O)O)C2=O)cc1 (centres undefined)
  -3	-9
- CCCSc1ncccc1C(=O)N(Cc1ccc(F)cc1)Cc1nc2cc(Cl)ccc2o1
  1	-3
- O=C(CN1C(=O)NC2(CCOc3ccccc32)C1=O)N1CCCCCCC1 (centres undefined)
  -3	-7

Nothing new here: entries from further up.
Second line of a record: NPYLR7 agonist	NPYLR7 agonist max-min
- O=[N+]([O-])c1cc(-c2nnc(C34CC5CC(CC(C5)C3)C4)o2)cc([N+](=O)[O-])c1
  0	-5
- COC(=O)c1ccc(/C=C2\SC(=S)N(C(C)C(=O)O)C2=O)cc1 (centres undefined)
  -3	-9
- CCCSc1ncccc1C(=O)N(Cc1ccc(F)cc1)Cc1nc2cc(Cl)ccc2o1
  1	-3
- O=C(CN1C(=O)NC2(CCOc3ccccc32)C1=O)N1CCCCCCC1 (centres undefined)
  -3	-7

(list continues)
Second line of a record: NPYLR7 agonist	NPYLR7 agonist max-min
- CC(=O)c1ccc(OCC(=O)N2CCSC2=NCc2ccccc2)cc1
  1	2
- O=C(c1cc(Cl)sc1Cl)N1CCN(Cc2cc(=O)c(OCc3ccccc3Cl)co2)CC1
  23	9
- CCN(CC)C(=O)c1ccc(Nc2nnc(-c3ccc(C)c(S(N)(=O)=O)c3)c3ccccc23)cc1
  -14	-18
- CC(=O)c1cccc(-n2c(CCc3ccccc3)n[nH]c2=O)c1
  11	6
- O=C(c1cc2ccccc2oc1=O)N1CCN(C(c2ccccc2)c2ccccc2)CC1
  11	18
- CCc1nnc(CN(CC)C(=O)c2ccc3cccc(Cl)c3n2)o1
  0	-4
- COC(=O)C1=C(C)N(C)C(=S)NC1c1ccccc1 (centres undefined)
  3	4
- Cc1nn(-c2ccccc2)c(C)c1C=C(C#N)C(=O)Nc1nccs1
  -1	2
- COc1c(C)cc(-c2ccc(C)nn2)cc1C
  -2	0
- Cc1ccc(CN(Cc2ccc3c(c2)OCO3)C(=O)CN(CCN2CCOCC2)C(=O)c2cccc(Br)c2)o1
  30	30
- CN1CCC(Cn2ccnc2-c2ccccn2)(c2ccccc2)CC1
  8	7
- CC1(C(=O)NC2CCc3cc(Cl)ccc32)CCCO1 (centres undefined)
  -23	-25
- COc1cc(C(C)=O)ccc1OCCOCCN1CCN(Cc2ccccc2)CC1
  5	1
- COc1cccc(N2C[C@@H]3C[C@@H](c4cccs4)N4CCC[C@@]34C2=O)c1
  0	0
- CC(=O)C(C)Sc1nc2cc(S(=O)(=O)N3CCOCC3)ccc2n1CCCN1CCOCC1 (centres undefined)
  -6	-9
- COc1ccccc1C(=O)N1CCN(c2nccc(-c3ccco3)n2)CC1
  5	1
- COc1ccc(-c2ccccc2)cc1NCC1CC=CCC1 (centres undefined)
  -13	-19
- Cc1ccc(C(=O)N2CCN(c3ccc([N+](=O)[O-])cc3Cl)CC2)cc1
  2	-10
- Cc1ccc(Cn2nccc2NC(=O)c2cccnc2SC(F)F)o1
  -5	-3
- c1ccc(-c2nnc(Sc3ncnc4c3oc3ccccc34)o2)cc1
  1	0
- CCc1nc(SCC(=O)N2CCCC(Cc3ccc(F)cc3)C2)n[nH]1 (centres undefined)
  10	3
- Cc1cc(-c2nccn2-c2ccc(CO)cc2)cc(C)c1O
  4	2
- S=c1[nH]cc(-c2ccc(Br)cc2)[nH]1
  0&3	-2&2
- COC(=O)c1ccccc1C=C1N=C(c2ccccc2Cl)OC1=O
  2	0
- COC(=O)CCN(C(=O)Cc1cccc(C)c1)C(C)C
  2	1
- CC(CNC(=O)c1ccc[nH]1)Sc1ccc(Br)cc1 (centres undefined)
  -3	-4
- CC1CC(CC(C)C(=O)Nc2nncs2)C(=O)O1 (centres undefined)
  15	12
- CCOc1cc(-c2[nH]c(=S)[nH]c(=O)c2C#N)ccc1O
  -14	-20
- CC(C)c1n[nH]c2c1CN(C(=O)c1cccc3ccnn13)CC2
  5	4
- COc1ccc(CNC(=O)CC[C@]23CC[C@](C)(O)C[C@H]2C(C)(C)C[C@@H]3NC(=O)c2cccnc2)cc1
  -13	-17
- COC(=O)c1ccc(CSc2nnc(-c3cccs3)n2-c2cccc(C)c2)o1
  0	-1
- CCCCCCCCCCCCc1nc(-c2ccc(Cl)cc2)no1
  -5	-8
- Cc1cc(C2=NNC(=NCC3CCCO3)SC2)c(C)n1-c1ccc(F)cc1 (centres undefined)
  5	4
- CON(C)C(=O)C(c1ccccc1)N1CCCC1 (centres undefined)
  5	1
- COc1ccc(-c2nc3cc(C)ccn3c2NC(=O)CSc2ccccc2)cc1OC
  0	7
- Cc1cc2c(cc1C)C(=O)c1cc(C)c(C)cc1C2=O
  -3	-9
- Cc1cc(C(=O)NCC2CCCCC2)c2nc3n(c2n1)CCCCC3
  -2	-4
- COc1ccc(NC(=O)c2ccc(Br)o2)cn1
  1	1
- CCn1cnnc1CCNC(=O)c1oc2cc(C)ccc2c1C
  12	1
- CC(C(=O)O)N1C(=O)/C(=C/c2cccc([N+](=O)[O-])c2)SC1=S (centres undefined)
  -1	-9
- C=CC[C@@H]1Cc2ccccc2[C@@H](C)N1
  10	3
- O=C(c1ccc(-c2cc(-c3ccc(N4CCCCC4)cc3)n[nH]2)cc1)N1CCc2ccccc2C1
  -1	5
- CC(=O)N1CCN(C(=O)c2csc(COc3cc(C)cc(C)c3C)n2)CC1
  -3	-8
- COc1cc(CNC(=O)COCc2nc3ccccc3c(=O)[nH]2)ccn1
  -4	-4
- COCC(C)NC(=O)COC(=O)c1cc2c(s1)CCSC2 (centres undefined)
  -1	-3
- CC1=C(C(=O)OC(C)C)C(c2ccc(C)cc2)C2=C(CC(c3ccccc3)CC2=O)N1 (centres undefined)
  1	0
- C=CCn1c(CN(Cc2ccccc2)Cc2ccccc2)nc2c1c(=O)n(C)c(=O)n2C
  -13	-14
- O=C(CCN(Cc1ccccc1)c1nc(-c2ccco2)nc2ccccc12)NCc1cccc(C(F)(F)F)c1
  14	25
- CC(=O)NC(=Cc1ccc(Cl)cc1)C(=O)O
  14	17
- Cc1ccccc1-c1noc(CN2CCCN(c3ccncc3C)CC2)n1
  21	11
- COCCCN(C(=O)Nc1ccc(C)c(C)c1)C1CCN(C)CC1
  17	7
- COc1cccc(CSc2nnc(C(C)NC(=O)C3C[C@H]3c3ccccc3)n2-c2cc(Cl)ccc2Cl)c1 (some centres undefined)
  5	8
- CCS(=O)(=O)Oc1ccc(CN(C(=O)Nc2ccc(OC)cc2)C(C)C)cc1
  17	20
- CN(C(=O)c1ccccc1N1CCC(NC(=O)c2ccc(Br)cc2)CC1)C1CCCCC1
  -2	10
- N#Cc1cccnc1N1CCN(CC(=O)Nc2ccccc2Cl)CC1
  5	1
- COc1ccc(Cc2noc(CN3CCN(Cc4cccs4)CC3)n2)cc1OC
  7	3
- O=C(c1cnn2c(C(F)(F)F)cc(-c3ccc4c(c3)OCO4)nc12)N1CCN(Cc2ccccc2)CC1
  -9	-10
- Cc1[nH]cnc1-c1nccn1Cc1ccc2sccc2c1
  29	11
- CC(C)Cn1cc(C(=O)N(C)Cc2cc3ccccc3s2)c(=O)c(C(=O)N2CCCCCC2)c1
  18	6
- O=C1CN(CC(O)COc2ccc(Cl)cc2Cl)c2ccccc2N1 (centres undefined)
  -1	-2

Carrying on:
Second line of a record: NPYLR7 agonist	NPYLR7 agonist max-min
- CCCCc1ccc(S(=O)(=O)N2CCC(c3nc(-c4ccccc4F)no3)CC2)cc1
  14	14
- COc1cn(CC(=O)Nc2c(C)cc(C)cc2C)c(CN2CCN(c3ccccc3)CC2)cc1=O
  -3	-4
- Cc1ccc(CN2CCN(Cc3cnc(-c4ccccc4)s3)CC2CCO)o1 (centres undefined)
  5	-1
- Cc1cc(C)c(NC(=O)Cn2nc3c(cc2=O)CCCC3)c(C)c1
  -16	-19
- COc1ccc(OC)c(NC(=O)CSc2ccc(-c3sc(C)nc3C)nn2)c1
  26	14
- O=C(NNC(=O)C12CCC(CC1)C2)c1ccncc1
  6	5
- CCNC(=O)Nc1ccc(N(C)C)c(CN(Cc2cccc(F)c2)C(=O)c2ccc(OC)cc2)c1
  4	12
- CCN=C1SC(C(=O)Nc2cccc(OCC)c2)CC(=O)N1CC (centres undefined)
  1	-1
- C=CCOCC(O)CN(Cc1ccccc1)CC1CC(c2ccc(Cl)c(Cl)c2)=NO1 (centres undefined)
  -5	0
- O=C(c1cncc(Br)c1)N1CCN(Cc2cc(=O)c(OCc3ccc(F)cc3)co2)CC1
  3	-1
- O=C(NC1CCCc2c1cnn2-c1ccccc1F)C1=CCCC1 (centres undefined)
  7	8
- O=C(CSc1nc(=O)n(Cc2ccco2)c2c1CCC2)N1CCN(c2ccccc2)CC1
  15	8
- CC(C)(C)OC(=O)N1CCC2(CC1)C1CN(C(=O)OC(C)(C)C)CC=C1C(C#N)C(=N)C2(C#N)C#N (centres undefined)
  3	0
- CCOc1ccc(-c2cc(C)n3nc(C(=O)Nc4cccc(O)c4)cc3n2)cc1
  -3	-8
- Nc1n[nH]c2ccc(/C=C/c3ccccc3)cc12
  0	0
- Cc1nn(Cc2ccccc2)c(C)c1[C@@H]1C=C[C@@H](N)C1
  10	2
- CCSc1ncccc1C(=O)N[C@H]1CCCCNC1=O
  -7	-13
- C=C(C)Cn1c(C2CC(=O)N(c3ccc(OCC)cc3)C2)nc2ccccc21 (centres undefined)
  1	2
- CC(C)C(NS(=O)(=O)c1ccccc1Br)c1ccc2c(c1)OCCCO2 (centres undefined)
  -4	-7
- CC(Nc1ccc(CCN2CCSCC2)cc1)C(=O)N1CCNC1=O (centres undefined)
  2	2

Random excerpt: 3 entries already listed
Second line of a record: NPYLR7 agonist	NPYLR7 agonist max-min
- COc1cn(CC(=O)Nc2c(C)cc(C)cc2C)c(CN2CCN(c3ccccc3)CC2)cc1=O
  -3	-4
- O=C(CSc1nc(=O)n(Cc2ccco2)c2c1CCC2)N1CCN(c2ccccc2)CC1
  15	8
- Cc1ccc(CN2CCN(Cc3cnc(-c4ccccc4)s3)CC2CCO)o1 (centres undefined)
  5	-1

Next section
Second line of a record: NPYLR7 agonist	NPYLR7 agonist max-min
- O=S(=O)(c1ccc(N=C2NN=C(c3c[nH]c4ccccc34)CS2)cc1)N1CCOCC1
  1	-5
- O=C(Cc1cccs1)N1CCN(C(=O)CN2CCc3sccc3C2c2ccccc2)CC1 (centres undefined)
  7	-5
- O=C(CSc1nc2ccccc2s1)N/N=C\c1ccc(Cl)cc1
  1	-5
- CCOC(=O)c1cc2c(-c3ccccc3)[nH]nc2n(C)c1=O
  2	2
- O=C1COc2ccc(C3=Nn4c(nnc4-c4cccnc4)SC3)cc2N1
  0	-2
- Cc1[nH]cnc1-c1nccn1CCc1nc2ccccc2[nH]1
  18	4
- Cn1cc(Br)c(=O)[nH]c1=O
  0	3
- CC1=CC(C)(C)NC(=S)N1NC(=O)c1ccccc1
  -1	27
- CC1CN(c2ncnc3c(Br)cccc23)CC(C)O1 (centres undefined)
  -1	-2
- CCOC(=NCCCc1ccccc1)NC(=O)c1ccc(C(F)(F)F)cc1
  15	15
- O=C(Nc1ccc(Cl)cc1Cl)c1nn2c(C(F)(F)F)cc(-c3ccc(Br)cc3)nc2c1Cl
  4	-3
- CCN(CC)S(=O)(=O)c1ccc(OC)c(N2CCN(S(=O)(=O)c3c(F)cccc3F)CC2)c1
  26	17
- CC(C)NC(=O)c1csc(N2CCNC2=O)n1
  7	3
- COCCNc1nccc2[nH]c(-c3cccc(C)c3)nc12
  -7	-9
- Cn1ncc([N+](=O)[O-])c1C(=O)Nc1ccc(C2CCCCC2)cc1
  -5	-10
- CCN(C)CCNC(=O)c1nnn(-c2ccc(Cl)cc2F)c1C
  4	4
- CC(=O)N1CC(C(=O)NCC(=O)Nc2ccc(Br)cc2C)Oc2ccccc21 (centres undefined)
  10	4
- COc1cccc2ccc(-c3nccn3CCN(C)C)nc12
  -2	-10
- O=C(NCCCn1ncccc1=O)Nc1cccc(C(F)(F)F)c1
  -2	-6
- CCc1cccc(C)c1NC(=O)c1c(-c2ccccc2Cl)noc1C
  -2	-3
- Cc1cn(CCn2cnc(-c3ccccc3)c2-c2cnn3cccnc23)nn1
  20	12
